# FGF22 binding = shifts melting point of recombinant human FGF22; 340,000 compounds, 1.5% hits; recombinant FGF22 thermal shift, SYPRO orange fluorescence; percent of sucrose octasulfate shift, DMSO zero; AID 651658; calls only at 9.99 µM; Q9HCT0;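 active = melting point raised past a set limit in the mean and every replicate; inconclusive = no clear call; three in four hits are not shown here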
# Target sequence (Q9HCT0 whole entry, looked up): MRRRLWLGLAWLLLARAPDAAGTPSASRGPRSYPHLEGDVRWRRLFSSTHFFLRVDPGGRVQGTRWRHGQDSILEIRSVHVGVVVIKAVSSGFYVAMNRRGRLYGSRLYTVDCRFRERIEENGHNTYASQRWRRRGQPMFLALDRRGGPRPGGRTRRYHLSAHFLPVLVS
# Ecoli growth = E. coli growth inhibition. Escherichia coli growth, OD600, 23 h; stronger effect = lower value. OD600 absorbance (concentration not given with the values). 330,000 compounds, 0.21% hits. AID 1053175;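 active = OD600 absorbance below the run mean of sample wells minus 3.6 SD, in any replicate, cut at about 0.56 in these data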;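 note: stock transfer was 300 nL into about 60 µL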
# rRNA inh HTS = selective bacterial rRNA inhibition in E. coli; E. coli WT GFP vs humanized-ribosome RFP mutants, fluorescence, 24 h; stronger effect = lower value; DMSO median 0, no signal -100; GFP signal change (wild-type ribosome), % (no concentration beside the values); 350,000 compounds, 1.6% hits;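 active = significant combined selectivity score with lowered wild-type GFP, culture density cut under 30%, mutant RFP and density less affected; inactive = any of these conditions unmet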; note: one replicate is shown; some compounds called inactive have numbers as strong as hits
# T cruzi inh = T. cruzi replication inhibition; T. cruzi beta-gal in NIH3T3, luminescence, 90 h; inhibition, % (concentration not given with the values); 300,000 compounds, 1.4% hits; AID 1885;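 active = mean inhibition across valid replicates above about 55%, limit read from the data; inconclusive = mean below that limit but half or more replicates reach it; inactive = mean below it, under half of replicates reach it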;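 note: signal also drops with host cell toxicity which is not excluded here; 0% = plate median of DMSO wells and 100% = zero luminescence signal; higher percent means less beta-gal luminescence so fewer parasites; stock transfer was 50 nL into about 50 µL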
# Beta cell apopt = beta cell apoptosis inhibition | INS-1E cytokine-induced death, ATP luminescence, 48 h; percent of positive-control rescue, neutral wells zero | protection from apoptosis, % (test concentration not listed) | 300,000 compounds, 0.8% hits | AID 435005;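 active = all replicates at 75% or more, or half of them and the mean; inconclusive = half reach 75% but not the mean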;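 note: 0% = cytokine-treated negative control wells and 100% = positive control rescue; higher means more ATP so stronger rescue from cytokine killing; wells of about 40 µL received 100 nL stock; the first replicate is given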
# UCH37 inh = blocks the human deubiquitinase UCH37. purified proteasome/UCH37, Ub-AMC cleavage fluorescence. Q9Y5K5. inhibition, % (no concentration beside the values). 330,000 compounds, 0.33% hits;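 active = mean of two replicates above 20%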;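 note: 0% = compound-free wells with enzyme and 100% = wells lacking proteasome; stock transfer was 100 nL into about 20 µL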
# Target sequence (Q9Y5K5 whole entry, looked up): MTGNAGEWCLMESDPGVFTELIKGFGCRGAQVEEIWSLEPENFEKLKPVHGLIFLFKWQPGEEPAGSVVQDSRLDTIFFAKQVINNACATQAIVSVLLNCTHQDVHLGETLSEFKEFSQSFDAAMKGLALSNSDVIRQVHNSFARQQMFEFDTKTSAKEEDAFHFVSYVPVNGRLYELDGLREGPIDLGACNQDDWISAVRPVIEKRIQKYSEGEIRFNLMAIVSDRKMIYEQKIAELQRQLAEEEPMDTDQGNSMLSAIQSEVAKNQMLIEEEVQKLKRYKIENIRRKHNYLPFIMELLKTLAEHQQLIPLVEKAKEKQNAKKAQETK
#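 Signal – fluorescence, ex 355 nm, em 460 nm · System – Proteasome-bound UCH37 · Input – 0.15 nM proteasome as dispensed · Timing – 30 min preincubation with enzyme, 25 min cleavage at room temperature · Read-out basis – percent inhibition of cleavage signal versus uninhibited and no-proteasome wells · Medium – Tris-HCl pH 7.4 with ATP-MgCl2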
# A1 inh = inhibitors of the anti-apoptotic protein A1, read as caspase activation | 330,000 compounds, 0.066% hits | AID 2462 | MEF A1-2A-BIM cells, Caspase-Glo 3/7 luminescence, 3 h; percent of clofoctol response, vehicle zero | caspase activation, % (concentration not given with the values);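 active = over half of replicate activation scores above 10%, or exactly half above 10 with the replicate mean above 10; inconclusive = replicate mean below 10 yet half the replicates above 10; inactive = over half of replicates below 10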;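 note: wells of about 30 µL received 50 nL stock; many hits fall short of the cut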
# AF4-AF9 inh = MLL-AF4/AF9 protein interaction inhibition; P42568; AlphaScreen, biotin-AF4 peptide binding to FLAG-AF9; inhibition, % at 10 µM; 350,000 compounds, 0.47% hits; AID 651704;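 active = every replicate reaching a set inhibition limit, whatever the replicate mean, cut at about 25% in these data; inconclusive = mean inhibition reaches that limit but some replicates miss it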;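 note: 0% = plate neutral control median and 100% = total signal loss; the record names both 10 and 1 µM as test concentration; the first replicate is given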
# Target sequence (P42568 whole entry, looked up): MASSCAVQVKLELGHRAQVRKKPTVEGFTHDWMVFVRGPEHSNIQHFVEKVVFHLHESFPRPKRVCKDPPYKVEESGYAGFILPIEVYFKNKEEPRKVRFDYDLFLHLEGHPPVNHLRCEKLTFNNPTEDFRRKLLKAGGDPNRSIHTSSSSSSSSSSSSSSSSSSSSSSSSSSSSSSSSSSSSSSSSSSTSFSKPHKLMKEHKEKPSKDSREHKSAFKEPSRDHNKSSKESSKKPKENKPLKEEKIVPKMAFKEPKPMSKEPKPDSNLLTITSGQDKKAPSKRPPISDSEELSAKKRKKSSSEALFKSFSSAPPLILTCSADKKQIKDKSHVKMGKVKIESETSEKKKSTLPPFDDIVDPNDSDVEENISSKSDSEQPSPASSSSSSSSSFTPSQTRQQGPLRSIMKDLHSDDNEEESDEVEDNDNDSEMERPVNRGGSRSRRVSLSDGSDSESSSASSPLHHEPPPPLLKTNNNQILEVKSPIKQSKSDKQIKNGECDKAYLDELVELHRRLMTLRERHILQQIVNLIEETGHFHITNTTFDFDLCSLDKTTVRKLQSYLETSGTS
# rRNA inh HTS OD600 = also measured in rRNA inh HTS; calls as there; OD600 change, %; measured here: OD600 growth;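 optical density of the mix in the first replicate; 0 = DMSO median and -100 = no signal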
# rRNA inh HTS RFP = also measured in rRNA inh HTS; calls as there; RFP signal change, %; measured here: RFP humanized mutant strains;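 first replicate; 0 = DMSO median and -100 = no signal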
# * marks the source's active call; other numbers are inactive results; i = inactive; ? = inconclusive; · = no result given; & = joins results of further samples. Not all compounds are listed; count on the stated rates, not on these rows.
SMILES,FGF22 binding,Ecoli growth,rRNA inh HTS,rRNA inh HTS OD600,rRNA inh HTS RFP,T cruzi inh,Beta cell apopt,UCH37 inh,A1 inh,AF4-AF9 inh
O=C(C[C@H]1C(=O)N(Cc2ccccc2)C[C@@H]1Cc1ccccc1)Nc1ccccc1,i,·,-30,-61,-5.2,1,9,4.7,0.3,0.6
COc1ccc(C(=O)Cn2nnc(-c3cccs3)n2)cc1,·,0.7,·,·,·,1,0,1.1,0.6,·
O=C(NCc1ccccn1)c1ccc(CNS(=O)(=O)c2ccc(F)cc2)cc1,·,0.72,·,·,·,-11,-6,1.3,1.1,·
COC(=O)c1cccnc1-n1c(=O)c2cccnc2n(Cc2cccc(OC)c2)c1=O,i,0.74,1,-2,0.7,3,·,2.2,-0.2,-4.3
O=C(COC(=O)Cc1c(F)cccc1Cl)NNC(=O)c1ccccc1,i,0.67,0,-1,0.2,·,1,1.0,0.3,-1.8
CCCCNC(=O)CCn1c(=O)c2ccccc2n(Cc2ccccc2C)c1=O,i,0.71,5,17,9.4,4,-7,-0.3,-0.5,0.8
COc1ccc(/C=C(\CC(=O)O)c2nc3ccccc3o2)cc1,i,·,-10,-10,1.8,-12,-4,5.9,1.4,1.9
COCCCNC(=O)C(C)N1c2cccc3cccc(c23)S1(=O)=O (centres undefined),i,0.64,5,5,6.0,-10,-9,-74,0.3,-5.9
O=C(NCCc1cccnc1)C1CCC(=O)N(Cc2ccc(Cl)cc2)C1 (centres undefined),i,0.7,7,13,3.2,-10,·,3.6,·,-3.1
COC(=O)CNC(=O)COC(=O)/C=C/c1ccc(F)cc1,i,0.68,19,18,-0.3,16,1,0.6,0.5,-0.3

# Compound profiles, from the list above. Order of screens: FGF22 binding	Ecoli growth	rRNA inh HTS	rRNA inh HTS OD600	rRNA inh HTS RFP	T cruzi inh	Beta cell apopt	UCH37 inh	A1 inh	AF4-AF9 inh
# `O=C(NCc1ccccn1)c1ccc(CNS(=O)(=O)c2ccc(F)cc2)cc1` is entered as ·	0.72	·	·	·	-11	-6	1.3	1.1	·
# `O=C(C[C@H]1C(=O)N(Cc2ccccc2)C[C@@H]1Cc1ccccc1)Nc1ccccc1` is entered as i	·	-30	-61	-5.2	1	9	4.7	0.3	0.6

# More entries.
SMILES,FGF22 binding,Ecoli growth,rRNA inh HTS,rRNA inh HTS OD600,rRNA inh HTS RFP,T cruzi inh,Beta cell apopt,UCH37 inh,A1 inh,AF4-AF9 inh
Cc1ccc(NC(=O)c2cc(CC(C)C)nc3ccccc23)cc1,i,0.69,-8,-8,-1.7,3,-3,-0.2,2.6,-0.9
CC1(C)Cc2cccc(OCC(=O)N3CCN(c4ccc([N+](=O)[O-])cc4)CC3)c2O1,·,0.65,·,·,·,8,6,9.1,-0.6,·
Cc1ccc(C(=O)COC(=O)C(C)N2C(=O)C3C4C=CC(C4)C3C2=O)cc1C (centres undefined),i,0.7,-17,-10,2.7,-6,-1,4.2,-1.2,-0.2
Cc1cc2ccccc2c(=O)n1CC(=O)NCC(=O)N(C)C1CCCCC1,·,0.67,·,·,·,12,-2,-8.3,-1.0,·
CC1(C)CC2CC(C)(CN2C(=O)c2cc(-c3ccc(F)cc3)on2)C1 (centres undefined),i,0.7,11,12,-2.0,-5,-4,0.6,0.4,1.7
Cc1cccc(N2CCN(C(=O)COc3ccc4c(C)cc(=O)oc4c3C)CC2)c1C,i,0.67,-3,-4,0.7,44,8,2.0,-0.9,0.1
CCOc1ccc(C(C(=O)NC(C)(C)C)N(CCOC)C(=O)CCC(=O)Nc2nccs2)cc1 (centres undefined),i,0.63,7,14,-1.9,3,-1,-1.7,0.2,0.4
COc1ccc(/C=C2\SC(=O)N(CC(=O)NC3CCS(=O)(=O)C3)C2=O)cc1 (centres undefined),i,0.7,12,9,4.3,-6,0,3.9,-0.6,-4.3
CCOCN(C(=O)Cn1c(C(C)O)nc2ccccc21)c1c(C)cccc1CC (centres undefined),·,0.71,·,·,·,20,1,-0.6,0.4,·
Cc1ccc2nc(Cl)c(CN(C(=O)c3cnccn3)C3CCCCC3)cc2c1,·,0.69,-14,-23,2.3,-3,-2,4.3,0.4,·
Cc1cccc(C)c1NC(=O)Cn1c(=O)n(CCC(=O)NCc2ccco2)c(=O)c2sccc21,·,0.76,·,·,·,0,-11,-0.2,0.0,·
Cc1cc(NC(=O)C2C3C(=O)N(CC4CCCO4)C(C(=O)NCc4ccccc4)C34C=CC2(C)O4)no1 (centres undefined),·,0.7,·,·,·,1,-7,0.3,0.1,·
Cc1cc(N2CCCC2)n2nc(C)nc2n1,i,0.72,10,6,0.5,-3,-2,10,-0.1,-0.5
CCOc1cccc(C(=O)Nc2ccc(NC(=O)c3ccccc3)c(C)c2)c1,i,0.71,11,16,11,-13,-5,1.8,-10,-4.3
COc1ccc2c(c1)OC13CCN(C)CC1C2C(C(=O)c1ccc(F)cc1)C(=O)N3 (centres undefined),i,0.72,11,0,1.2,-18,-5,4.7,1.2,2.9
CN(C)C(=O)[C@H]1C[C@H]1[C@@H](O)[C@H](CO)NC(=O)[C@H](Cc1ccccc1)NC(=O)OC(C)(C)C,i,·,11,29,6.0,2,3,3.6,-0.4,-2.8
COCCNC(=O)CN(C(=O)Cn1nnc2ccccc21)c1ccccc1C,i,0.68,6,9,-4.5,-13,-3,0.3,-0.5,-2.0
CC(C)Oc1ccc(S(=O)(=O)N2CCCCC2)cc1NC(=O)CN1C(=O)NC(C)(c2ccccc2)C1=O (centres undefined),i,0.7,0,1,0.5,22,0,0.4,-0.2,0.4
Cc1cc(C)n2c(Br)c(CN3CCCC(C)C3)nc2n1 (centres undefined),i,0.71,14,9,4.3,-16,2,-90,1.1,0.7
Oc1ccc(Cl)cc1C=Nc1ccccc1Br,·,0.7,·,·,·,-15,-1,2.5,-0.5,·
Cc1noc(C)c1CSc1ncnc2ccccc12,·,0.66,-4,0,-6.8,7,-4,0.7,0.6,·
CC(C)(C)c1ccc(-c2csc(NNC3=NCCCCC3)n2)cc1,·,0.68,·,·,·,46,15,2.4,0.3,·
COc1ccccc1NC(=S)NCc1ccc(Cl)cc1,i,0.65,-4,-4,-0.4,0,-2,-1.6,0.0,1.9
COc1ccccc1C(=O)COC(=O)Cn1nc(C)c([N+](=O)[O-])c1C,i,0.72,4,-8,-0.3,-4,1,-0.5,-0.8,-3.1
FC(F)(F)c1nc(-c2cccs2)ncc1-c1nnnn1-c1ccc(Cl)cc1,·,0.77,·,·,·,-9,45,-3.4,-1.4,·
COC(=O)C(C)(C)ONC(=O)Nc1ccc(C)cc1,·,0.68,·,·,·,-19,-8,6.9,0.7,·
Fc1ccc(-c2nnc(-n3nnc4ccccc43)c3ccccc23)cc1,·,0.71,·,·,·,3,-3,5.0,?,·
O=C1CC(c2ccccc2)CC(O)=C1C=NCCN1CCN(C(=S)Nc2cccc(Cl)c2)CC1 (centres undefined),·,0.67,·,·,·,-24,-15,1.5,-1.7,·
Cc1onc(-c2ccccc2Cl)c1C(=O)Nc1nnc(-c2cccc([N+](=O)[O-])c2)s1,i,0.75,10,-1,-8.4,-29,20,4.9,-0.1,6.7
Cc1cc(C(=O)C(C)OC(=O)c2ccc(NC(=O)CC#N)cc2)c(C)n1-c1ccccc1 (centres undefined),i,0.69,-2,-18,9.7,18,·,3.0,0.0,-11
NC(N)=NS(=O)(=O)c1ccc(NC(=S)NC(=O)/C=C/c2ccco2)cc1,·,0.64,·,·,·,-9,-1,9.4,1.0,·
COc1ccc(NC(=O)C2CC(c3ccc(Cl)cc3)=NO2)cc1 (centres undefined),i,·,3,4,-0.1,14,3,·,0.5,0.6
CC(=O)N/C(=C\c1ccccc1)C(=O)OC/C=C/c1ccccc1,i,0.72,-14,-11,2.6,-10,0,4.9,0.3,-7.4
Cc1noc(C)c1S(=O)(=O)N1CCN(c2ccc(Cl)cc2)CC1,i,0.73,11,11,0.9,14,·,2.3,0.1,1.8
COc1ccc(/C(C)=N\NC(=O)c2ccc(-c3ccccc3)cc2)c(F)c1,i,·,-4,-3,-1.1,-2,-4,·,0.6,-1.5
Cc1cccc(C)c1OCC(=O)N1CC2(C)CC1CC(C)(C)C2 (centres undefined),·,0.71,·,·,·,20,-2,-0.4,1.6,·
COc1ccc(-n2nnnc2SCC(=O)Nc2cc(OC)c([N+](=O)[O-])cc2C)cc1,i,0.69,-45,-54,-6.7,2,25,9.0,0.1,3.3
CCC(C)(C)NC(=O)CN(Cc1ccccc1)C(=O)CCC(=O)Nc1nccs1,i,0.63,-2,4,-2.1,8,-8,0.1,-0.4,-0.8
CCN(C[C@H]1N[C@@](C)(C(=O)OC)[C@H]2C(=O)N(Cc3ccccc3)C(=O)[C@@H]12)S(=O)(=O)c1ccccc1,i,0.71,-3,-9,4.3,·,-12,3.3,-0.9,-0.2
Cc1[nH]n(-c2ccccc2)c(=O)c1N=Nc1ccc(F)cc1,i,0.69,6,5,2.0,8,·,7.9,-1.1,5.9
COc1ccc(OC)c(N2CC(O)=C(c3nc4ccccc4s3)C2=N)c1,·,0.74,·,·,·,2,-5,-11,-1.0,·
Cc1cccc(C)c1NC(=O)CCCSc1nnc(-c2ccco2)n1-c1ccccc1,·,0.75,·,·,·,-5,3,1.3,1.6,·
CC1CCN=C(N)S1 (centres undefined),i,0.7,12,12,5.4,-14,-3,4.8,-0.1,-1.5
Cc1ccc(C)c(S(=O)(=O)c2c[nH]c(=S)[nH]c2=O)c1,i,0.7,4,10,7.4,-5,·,5.0,1.2,-0.9
O=C(CNS(=O)(=O)c1c(F)cc(F)cc1Br)OCC(=O)N1CCCC1=O,i,0.7,4,10,-0.9,-10,-5,4.0,-0.3,6.0
CC(C)CC1(C(=O)NCCc2c[nH]c3ccccc23)C=CCN1C(=O)c1ccccc1 (centres undefined),i,0.67,-3,-1,-14,4,4,4.5,-0.5,0.8
CC(=O)OCCCN(C)CC/C=C1/c2ccccc2CSc2ccccc21,i,0.65,-18,-8,0.9,21,-17,0.8,0.5,6.0
CCc1cccc(C)c1NC(=O)CN(C)Cc1ccccc1F,·,0.73,·,·,·,-5,6,3.6,-0.1,·
Nc1nnc(SCC(=O)NNC(=O)c2ccc([N+](=O)[O-])cc2)s1,i,0.69,·,·,·,·,-4,2.2,0.4,-1.0
CC(C(=O)Nc1ccccc1Br)N1c2cccc3cccc(c23)S1(=O)=O (centres undefined),i,0.69,-12,-18,-1.7,6,2,-38,0.7,-9.7
CC1CCCCN1Cc1c(O)ccc2c(=O)c(-c3ccccc3)coc12 (centres undefined),i,0.69,-2,8,-0.2,2,2,i,-0.6,-2.8
C/C(N)=C(/C#N)C(=O)COC(=O)CCSc1ccccc1,i,0.68&0.66,-5,3,1.0,-3,-1,4.1&5.4,-0.4,1.4

# From PubChem BioAssay
